# Bioassay records (PubChem)
# KCNQ2 block: KCNQ2 channel blockers in CHO-K1 cells – cell-based, FluxOR thallium flux, B-score, primary screen (AID 2156); O88943; 20 min; active compounds read low; only compounds with negative scores are shown here; some inactives read as strong as hits; B-score at 10 µM; hit rate 1.1% among 310,000;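 active means fluorescence ratio B-score at most minus 3 library SDs, with starting brightness B-score within 2 library SDs, cut at about -5.5 in these data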
# Target sequence (O88943 whole entry, looked up): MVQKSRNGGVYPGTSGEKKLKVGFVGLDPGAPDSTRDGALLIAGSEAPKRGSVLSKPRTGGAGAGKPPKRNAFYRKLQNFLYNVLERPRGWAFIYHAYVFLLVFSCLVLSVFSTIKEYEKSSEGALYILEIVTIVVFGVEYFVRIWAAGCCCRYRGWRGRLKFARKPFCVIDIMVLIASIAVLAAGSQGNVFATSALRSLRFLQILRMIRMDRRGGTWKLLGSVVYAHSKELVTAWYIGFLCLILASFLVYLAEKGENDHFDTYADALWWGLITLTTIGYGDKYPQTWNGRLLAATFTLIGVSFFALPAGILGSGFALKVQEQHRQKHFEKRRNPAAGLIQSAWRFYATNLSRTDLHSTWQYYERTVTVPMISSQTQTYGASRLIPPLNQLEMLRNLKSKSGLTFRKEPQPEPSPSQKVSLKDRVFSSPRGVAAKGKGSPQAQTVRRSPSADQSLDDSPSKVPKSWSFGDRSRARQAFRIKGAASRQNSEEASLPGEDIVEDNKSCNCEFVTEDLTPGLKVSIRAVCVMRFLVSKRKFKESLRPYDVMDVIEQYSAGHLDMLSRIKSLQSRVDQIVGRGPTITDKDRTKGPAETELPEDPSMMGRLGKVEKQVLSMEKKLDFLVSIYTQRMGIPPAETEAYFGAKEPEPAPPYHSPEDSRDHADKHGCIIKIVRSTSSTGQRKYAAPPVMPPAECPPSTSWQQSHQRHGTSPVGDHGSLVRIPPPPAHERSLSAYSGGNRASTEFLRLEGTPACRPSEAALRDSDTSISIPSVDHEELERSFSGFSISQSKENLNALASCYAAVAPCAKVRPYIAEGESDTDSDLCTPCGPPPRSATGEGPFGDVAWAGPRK
# KCNQ2 block baseline: recorded beside KCNQ2 block, whose call it bears; B-score; measured here: initial fluorescence intensity artifact check;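 brightness before thallium and not channel activity; 0 = typical well and far values either way flag optical interference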
# Numbers without * were called inactive; i = inactive. An excerpt (hit frequency here may not be typical).
KCNQ2 block baseline | KCNQ2 block | canonical_smiles
-0.28 | i | COc1ccccc1C1c2[nH]c3ccccc3c2C[C@H]2C(=O)N(C3CCN(Cc4ccccc4)CC3)CC(=O)N12 (stereo not given in full)
2.23 | i | CCOC(=O)C(C)Oc1cccc2c(=O)n(CC(=O)NCc3ccc(F)cc3)ccc12 (stereo not given)
-0.83 | i | COc1ccc(NC(=O)CN(C)C(=O)CC2CCCCC2)cc1
-0.11* | -6.25* | O=C(CCc1ccccc1)NC(=S)Nc1cc(C(F)(F)F)ccc1N1CCOCC1
2.12 | i | COC(=O)c1cc(-c2c(-c3cc(OC)c(OC)c(OC)c3)noc2C)cc([N+](=O)[O-])c1
-1.33 | i | COc1ccc(N(C(C)C(=O)NN=C2CCCCCCC2)S(C)(=O)=O)cc1 (stereo not given)
1.75 | i | CCOC(=O)C1=C(C)NC(C)=C(C(=O)OCC)C1C
-1.3 | i | Cc1cc(C=O)c(C)n1-c1ccc(Cl)c(C(=O)O)c1
-0.3 | i | Cc1ccc(-c2nc3cc(N)ccc3o2)cc1Br
-0.72 | i | Cc1cccc(NC(=O)N2CCCCCC2)c1

# Next structures:
KCNQ2 block baseline | KCNQ2 block | canonical_smiles
-0.2 | i | O=[N+]([O-])c1ccc(Sc2nccn2Cc2ccccc2)cc1
-0.68 | i | COc1cc(NC(=O)c2ccc(F)cc2)c(OC)cc1NC(=O)CN1CCOCC1
-0.85 | i | COc1ccc(-c2nn(-c3ccccc3)cc2/C=N/O)cc1OC
2.35 | i | COC(=O)c1sccc1NC(=O)CN(C)NS(=O)(=O)c1ccc(F)cc1
2.16 | i | Cc1nn(CCC(=O)NNC(=S)Nc2cccc(Cl)c2)c(C)c1[N+](=O)[O-]
2.07 | i | CCOc1ccc(C(=O)NCC(=O)N2CCCCCCC2)cc1OCC
0.57 | i | CC(=O)c1nnn(-c2ccccc2C#N)c1C
-1.39 | i | O=C(c1cccc(F)c1)N1CCN(c2cc(N3CCCCC3)c(F)cc2[N+](=O)[O-])CC1
-0.33 | i | O=C(NCc1ccccc1)C(=O)NCC(c1ccco1)N1CCN(c2ccccc2F)CC1 (stereo not given)
-0.01 | i | CC(=O)c1cccc(NC(=O)CCCCCn2nnc3ccccc3c2=O)c1

# Following part:
KCNQ2 block baseline | KCNQ2 block | canonical_smiles
1.49 | i | CCN(CC)C(=O)Cn1cc(/C=C(\C#N)C(=O)NC2CC2)c2ccccc21
0.54 | i | COc1cccc(-c2cc3nc(-c4ccccc4)cc(=O)n3[nH]2)c1
-0.94 | i | CCc1ccc(NC(=O)c2ccc(C3SCC(=O)N3CCc3ccccc3)cc2)cc1 (stereo not given)
-0.74 | i | COc1ccccc1CCNC(=O)c1cnccn1
0.45 | i | CCOc1ccccc1C(=O)NC(C(=O)Nc1cccc(S(N)(=O)=O)c1)C(C)C (stereo not given)
-0.7 | i | O=C(NCc1ccccc1)/C(=C/c1ccccc1)NC(=O)c1ccco1
0.11 | i | COc1ccc(N(C)C(=O)Cn2c(=O)oc3ccccc32)c(OC)c1
-0.43 | i | COc1ccc(-c2cc(C)no2)cc1S(=O)(=O)N(C)c1ccc(C)cc1
0.05 | i | CCC(=O)N1CCN(c2ccccc2NC(=O)c2ccc(OC)c(Cl)c2)CC1
0.24 | i | Cc1ccc(NC(=O)CSCc2cc(=O)n3cc(C)sc3n2)c(C)c1

# The list continues:
KCNQ2 block baseline | KCNQ2 block | canonical_smiles
1.64 | i | C(=N\Nc1nn[nH]n1)/c1ccccc1
3.58 | i | CCOc1ccc(/C=N/Nc2cc(C)nc(N3CCOCC3)n2)cc1
1.23 | i | CSc1ncc(C(=O)Nc2ccccc2C)c(C)n1
-0.72 | i | CCOC(=O)c1cnc(Nc2nc3ccccc3o2)nc1CSC(=S)N(CC)CC
0.44 | i | CCOc1ccc(NC(=S)N2C3CCCC2CC(NC(=O)C2CC2)C3)cc1 (stereo not given)
0.14 | i | CC1(C)OC(=O)C(=CSc2ccc(C(C)(C)C)cc2)C(=O)O1
-0.65 | i | COc1ccc(C2=NOC(Cn3nc(C(=O)NCc4ccco4)cc3-c3ccccc3)C2)cc1 (stereo not given)
-0.88 | i | Cc1nc2cc(NC(=O)C3COc4ccccc4O3)ccc2s1 (stereo not given)
0.74 | i | CC1CCCN(c2nc3c(c(=O)n(C)c(=O)n3C)n2CCSc2nc3ccccc3o2)C1 (stereo not given)
0.31 | i | COc1ccc(NC(=O)c2ccc3c(=O)n(Cc4ccco4)c(=S)[nH]c3c2)c(OC)c1

# A draw from above in order of SMILES length, rising:
KCNQ2 block baseline | KCNQ2 block | canonical_smiles
1.23 | i | CSc1ncc(C(=O)Nc2ccccc2C)c(C)n1
3.58 | i | CCOc1ccc(/C=N/Nc2cc(C)nc(N3CCOCC3)n2)cc1
-0.72 | i | CCOC(=O)c1cnc(Nc2nc3ccccc3o2)nc1CSC(=S)N(CC)CC

# Following part
KCNQ2 block baseline | KCNQ2 block | canonical_smiles
-1.63 | i | Cc1ccc(OCCN(C)C(=O)C2CCC(=O)N(CC3CCCCC3)C2)cc1 (stereo not given)
3.82 | i | CC(=O)Nc1ccc(S(=O)(=O)N2CCN(S(=O)(=O)N3CCCCCC3)CC2)cc1
1.94 | i | CCOC(=O)c1c(NC(=O)c2cc(-c3ccc(Cl)s3)nc3ccccc23)sc(C(N)=O)c1C
1.7 | i | CCCC(=O)N(Cc1cc2cc(C)ccc2[nH]c1=O)c1ccccc1OC
-1.69 | i | Cc1nc(SCC(=O)N(C)Cc2ccco2)c2c(C)c(C)sc2n1
-2.39 | i | O=C(O)CSCC(=O)N(Cc1ccccc1)c1nc(-c2ccccc2)c(-c2ccccc2)s1
-1.58 | i | Cc1ccc(CNC(=O)CSc2c3c(nc4cc(Cl)ccc24)CCCC3)o1
0.35 | i | Nn1c(SCc2c(F)cccc2F)nnc1-c1ccccn1
0.08 | i | CC1=NC(C#N)=C(C#N)NC(C)(C)C1
1.22 | i | O=C(CSc1nnc2ccccn12)N1CCc2ccccc2C1

# The list goes on:
KCNQ2 block baseline | KCNQ2 block | canonical_smiles
-0.9 | i | OC(CNCC1CCCO1)Cn1c2ccc(Br)cc2c2cc(Br)ccc21 (stereo not given)
-1.12 | i | Cc1cc2c(cc1C)CSC(c1ccccc1OC(=O)C(C)(C)C)SC2
0.49 | i | Cc1ccc(C(=O)NCC(=O)NCC(=O)OCC(=O)c2ccc([N+](=O)[O-])cc2)cc1
0.02 | i | CC1CC(C)CN(S(=O)(=O)c2cccc(C(=O)OCCN3CCCC3=O)c2)C1 (stereo not given)
0.28 | i | CCOc1ccc(NC(=O)CN(C)CC(=O)Nc2cc(Cl)ccc2C#N)cc1OCC
-0.69 | i | COC1C/C(=N\O)C2OC(c3ccccc3)OCC2O1 (stereo not given)
-0.36 | i | CCN(CC)CCN(Cc1cc2cc3c(cc2[nH]c1=O)OCCO3)C(=S)NC
-1.6 | i | O=C(O)COc1ccc(S(=O)(=O)N2CCCC2)cc1
-1.13 | i | COc1ccc(-c2csc(N(CC3CCCO3)C(=O)c3ccc(C)cc3)n2)cc1 (stereo not given)
-0.01 | i | Cc1ccc(S(=O)(=O)NCC(=O)N2CCC(C)CC2)cc1

# Continued:
KCNQ2 block baseline | KCNQ2 block | canonical_smiles
0.01 | i | COc1cnc(-c2ccccc2)c(-c2ccccc2)n1
-0.91 | i | Cc1ccc(CN=C2NC(=O)C(CC(=O)NCCc3ccccc3)S2)cc1 (stereo not given)
0.02 | i | COc1cc(C(c2c(C)[nH][nH]c2=O)c2c(C)[nH][nH]c2=O)ccc1OCc1ccc([N+](=O)[O-])cc1
2.03 | i | CCN1CCN(C(=O)CN(CC)S(=O)(=O)c2ccc(Cl)cc2)CC1
1.64 | i | CC1(C(=O)O)COC(c2ccc([N+](=O)[O-])cc2)OC1 (stereo not given)
-0.73 | i | CCN(CC)CCNCc1cc(Br)ccc1OCC(=O)NCc1ccccc1
4.05 | i | CC(=O)NN1C(=O)/C(=C\c2ccc(O)cc2)SC1=S
-0.57 | i | Cc1ccc(S(=O)(=O)N(C)C)cc1NC(=O)Nc1ccccc1F
1.28 | i | O=C(COC(=O)c1c2ccccc2cc2ccccc12)Nc1ncc(C(F)(F)F)cc1Cl
0.75 | i | Cn1c(NC(=S)Nc2ccccc2)nc2ccccc21

# Additional records follow:
KCNQ2 block baseline | KCNQ2 block | canonical_smiles
0.54 | i | Cc1ccc(CN2CCN(/N=C/c3ccc(N(C)C)cc3)CC2)cc1
0.09 | i | COc1ccc(C2c3ccsc3CCN2C(=O)C(C)(C)C)cc1 (stereo not given)
0.09 | i | Cc1ccc(NC(=O)COc2ccccc2[N+](=O)[O-])nc1
0.8 | i | Cc1cc2nc3n(c2cc1C)CC1CC(C(=O)NCC2CC2)N(C)C31 (stereo not given)
0.06 | i | CCCc1cc(=O)n2[nH]c(NCc3ccc(Cl)cc3Cl)nc2n1
-0.92 | i | O=C(COC(=O)c1ccc2c(c1)C(=O)N(Cc1ccncc1)C2=O)Nc1ccccc1[N+](=O)[O-]
-0.63 | i | Cc1nc(N2CCN(S(=O)(=O)c3ccccc3C#N)CC2)c2c(-c3cccs3)csc2n1
0.08 | i | CCNCc1cc(OCC)c(OCC(=O)NCCc2ccccc2)cc1Cl
-0.3 | i | COc1ccc(CC(=O)Nc2ccccc2NC(=O)c2ccco2)cc1OC
-0.28 | i | CCC(C)NC(=O)COc1ccccc1[N+](=O)[O-] (stereo not given)

# More results:
KCNQ2 block baseline | KCNQ2 block | canonical_smiles
0.51 | i | COc1ccccc1-c1ccc(SCc2ccccc2)nn1
1.7 | i | O=S(=O)(NCCN1CCOCC1)c1cc(Cl)c(Cl)cc1Cl
-0.82 | i | Brc1ccc(CSc2ncnc3nc[nH]c23)cc1
-2.15 | i | CC(C)(C)c1ccc(C(=O)c2c[nH]c(C(=O)NCc3cccnc3)c2)cc1
-0.77 | i | N#CC1=C(N)OC2=C(CCc3ccccc32)C1c1ccccc1 (stereo not given)
-0.41 | i | O=C(COC(=O)c1cc([N+](=O)[O-])ccc1N1CCOCC1)Nc1c(Cl)cccc1C(F)(F)F
0.01 | i | CCOC(=O)CC(NC(=O)Cn1nnc(-c2ccccc2F)n1)c1ccccc1Cl (stereo not given)
2.05 | i | C=CCN1C(=O)CSc2ccc(C(=O)NCc3ccc(F)cc3)cc21
8.81 | i | CC(=O)c1cc2ccc(O)cc2oc1=O
0.26 | i | Cc1ccccc1NC(=O)C1CC(=O)N(c2ccccc2F)C1 (stereo not given)

# Entries of single compounds, quoted from the list.
# Listed for N#CC1=C(N)OC2=C(CCc3ccccc32)C1c1ccccc1 (stereo not given) : KCNQ2 block baseline: -0.77; KCNQ2 block: i
# Listed for COc1ccccc1-c1ccc(SCc2ccccc2)nn1 : KCNQ2 block baseline: 0.51; KCNQ2 block: i
# Listed for O=S(=O)(NCCN1CCOCC1)c1cc(Cl)c(Cl)cc1Cl : KCNQ2 block baseline: 1.7; KCNQ2 block: i

# (listing goes on)
KCNQ2 block baseline | KCNQ2 block | canonical_smiles
-1.24 | i | Cc1ccccc1C(=O)N1CCN(c2ccc(NC(=O)c3ccc([N+](=O)[O-])o3)cc2)CC1
1.32 | i | N#C/C(=C\c1ccc(F)c(Cl)c1)S(=O)(=O)c1ccccn1
0.02 | i | NS(=O)(=O)c1ccc(NC(=O)CSc2nnc(Cc3cccs3)n2-c2ccccc2)cc1
0.06 | i | Cc1ccccc1CC(=O)N1CCN(C(=O)C2CCCO2)CC1 (stereo not given)
-0.06 | i | CC(C)c1ccccc1OCC(=O)Nc1cc(S(=O)(=O)N2CCOCC2)ccc1N1CCCC1
0.87 | i | CCOC(=O)CCN(Cc1sccc1C)S(=O)(=O)c1ccc(F)cc1
1.14 | i | CC(C)OC(=O)c1cc2ccccc2oc1=O
1.55 | i | Cc1nn(C)c(NC(=O)c2ccccc2Cl)c1Br
-0.02 | i | Cc1ccc2nc(C)cc(N/N=C/c3ccccc3O)c2c1
-1.78 | i | O=C(N/N=C/c1coc2ccccc2c1=O)c1cn(-c2ccccc2)nc1-c1ccccc1

# More records
KCNQ2 block baseline | KCNQ2 block | canonical_smiles
-0.41 | i | Cc1[nH][nH]c(=O)c1/C=N/N1CCOCC1
-1.58 | i | CCCCCC(O)c1cccc(OCc2ccc3ccccc3n2)c1 (stereo not given)
-1.31 | i | CC(=O)OCC12COC3c4ccccc4OC(C)(CC1C)C3C2C (stereo not given)
0.69 | i | Oc1ccc(Cn2ccnc2)c2cccnc12
-0.83 | i | O=C(CSC1=NS(=O)(=O)c2cc(Cl)ccc2N1)Nc1ccccc1F
-0.01 | i | O=C(CS(=O)(=O)c1ccccc1)N1CCN(c2ccccc2)CC1
0.65 | i | CC1CC(OCC(O)C[N+]2(C)CCOCC2)CC(C)(C)C1 (stereo not given)
3.5 | i | O=C(COc1ccc2c3c(c(=O)oc2c1)CCCC3)NCCCn1ccnc1
-0.48 | i | O=S(=O)(c1ccc2ccccc2c1)N1CCN(C2CCN(Cc3ccccc3)CC2)CC1
-0.5 | i | CC(C)CNC(=O)c1cc(-c2ccc3c(c2)OCO3)on1

# New compounds follow.
KCNQ2 block baseline | KCNQ2 block | canonical_smiles
0.08 | i | COc1ccc(C(CC(=O)NC(C)c2ccc(-c3ccccc3)cc2)NC(C)=O)cc1 (stereo not given)
0.25 | i | COc1ccc(C(=O)Nc2ccc(CN3CCS(=O)(=O)CC3)cc2)cc1
0.85 | i | COc1ccc(S(=O)(=O)n2nc(OC(=O)c3cccs3)cc2N)cc1
0.91 | i | Cc1cccc2c1NC(=O)C21OCC(CO)([N+](=O)[O-])CO1 (stereo not given)
0.71 | i | O=C(CSc1cn(CCNC(=O)c2ccc3ccccc3c2)c2ccccc12)NCc1ccco1
-2.2 | i | COCCNS(=O)(=O)c1ccc2c(c1)Cc1cc(S(=O)(=O)NCCOC)ccc1-2
2.08 | i | C=CCN1CCN(C(=O)CSc2ccccc2)CC1
-1.35 | i | CC(C)NC(=O)CC(=O)N/N=C/c1ccccc1F

# Three records picked at random from those above:
KCNQ2 block baseline | KCNQ2 block | canonical_smiles
-2.2 | i | COCCNS(=O)(=O)c1ccc2c(c1)Cc1cc(S(=O)(=O)NCCOC)ccc1-2
0.08 | i | COc1ccc(C(CC(=O)NC(C)c2ccc(-c3ccccc3)cc2)NC(C)=O)cc1 (stereo not given)
-1.35 | i | CC(C)NC(=O)CC(=O)N/N=C/c1ccccc1F
